Assay outcomes deposited in PubChem BioAssay by Fisher Drug Discovery Resource Center.
NPYLR7 agonist = activates Aedes aegypti NPYLR7 receptor. activation, % at 10 µM. HEK293T NPYLR7/Galpha15, GCaMP6s calcium fluorescence. AID 1259423. 0.15% of 270,000 active; in the data active means activation above about 40%;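 further: 0% = vehicle and 100% = reference agonist at the receptor; some compounds past the cut are filed as inactive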
NPYLR7 agonist max-min = recorded beside NPYLR7 agonist, whose call it bears; activation, %; measured here: Max-Min RFU normalised activation; some inactives read as strong as hits;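 span of the calcium signal over five minutes; 0% = vehicle and 100% = native peptide agonist; compound fluorescence can raise it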
An asterisk follows results filed as active; & = joins results of further samples. The list is partial; rates above refer to the full screens.

SMILES	NPYLR7 agonist	NPYLR7 agonist max-min
Cc1nc(C2CCCN(Cc3nc(-c4ccccc4C)no3)C2)cc(=O)[nH]1 (stereo unspecified)	3	-6
COc1cccc(-n2ccc3c(cnc4nc(SC)nn43)c2=O)c1	3	5
Cc1cccnc1CN1CCN(C(=O)c2cn(CCN3CCCCC3)nn2)CC1	2	-3
COC(=O)N[C@H]1C[C@@H](C(=O)NCc2ccccc2F)N(C)C1	-5	-8
CC(=O)N1CCCc2cc(S(=O)(=O)Nc3ccc(Cl)cc3C)ccc21	8	3
O=C(N1CCc2ccccc21)N1c2ccccc2Sc2ccccc21	9	7
NS(=O)(=O)c1cc(Cl)ccc1Cl	12	10
O=C(Cc1ccc(F)cc1)N1CCN(c2nc(-c3ccc(Cl)cc3)nc3ccccc23)CC1	20	11
CCC(CC)NC(=O)COC(=O)C1C(C(=O)OC)=C(C)NC(C)=C1C(=O)OC	3	4
Cc1ccc2nc(SCC(=O)Nc3cccc(F)c3)nc(=O)n2c1	-1	-2
CCN(CC)c1ccc(-c2nnc(SC(C)C)n2C)cc1	9	7
CCOC(=O)C1C(=O)C=C(c2ccc(C)cc2)CC1c1ccccc1OC (stereo unspecified)	10	14
CC1CCN(C2=C(c3c(C(C)C)[nH]n(-c4ccc(Cl)cc4)c3=O)C(=O)N(c3ccccc3F)C2=O)CC1	8	11
O=C(O)c1ccccc1-c1ncc[nH]1	-6	-8
COc1ccc(NC(=O)N(CCCN2CCOCC2)CC(=O)N(Cc2ccc3c(c2)OCO3)Cc2ccco2)cc1	13	25
CC(C)C(=O)Nc1ccc(C(=O)C(C)OC(=O)c2ccc(S(=O)(=O)N3CCCC3)cc2)cc1 (stereo unspecified)	-5	-11
Oc1c(N=Nc2ccccc2)c2ccccc2n1Cc1ccccc1	-3	-7
COc1ccc(CNC(=S)NC(=O)c2ccc(F)cc2)cc1OC	9	7
Cc1cc(CNC(=O)c2cn(Cc3cccc4ccccc34)nn2)n[nH]1	7	4
COc1cc(Cn2c(=O)n(C)c3ccccc32)c(OC)cc1Br	1	1
CCCC(=O)Nc1ccc(CC(=O)NCc2ccno2)cc1	16	-3
CCN(Cc1cccc(C)c1)Cc1cc(C)on1	1	0
c1ccc2c(c1)OCC(CSc1nnc3c(n1)[nH]c1ccccc13)O2 (stereo unspecified)	6	1
Cc1[nH]c2ccccc2c1N=Nc1c(C)n(C)n(-c2ccccc2)c1=O	-10	-17
CCn1c(C(O)c2ccccc2)nc2ccccc21 (stereo unspecified)	-1	-3
CN1OCC(S(=O)(=O)N2CCCC2)C1c1ccco1 (stereo unspecified)	5	0
N#Cc1cccc(NC(=O)N(CC(=O)N(Cc2ccccc2)Cc2ccco2)CC2CCCO2)c1 (stereo unspecified)	-3	1
O=C(Nc1cccnc1-n1cccn1)NC12CC3CC(CC(C3)C1)C2	-13	-15
CCS(=O)(=O)Oc1cc(CN(CC(C)C)C(=O)Nc2ccccc2C)ccc1OC	-1	8
CCc1nnc(-c2cc3ccccc3n2CC(=O)Nc2ccc(C(F)(F)F)cc2)o1	1	3
N#Cc1ccccc1-c1ccc(COc2coc(CN3CCN(S(=O)(=O)c4c(F)cccc4F)CC3)cc2=O)cc1	0	-6
N#CCc1cccc(C(=O)N2CCN(C3CCCC3O)CC2)c1 (stereo unspecified)	9	6
Cc1ccc(C(=O)Nc2nnc3n2CCCS3)cc1C	-3	3
CC1Cc2nc(SCC(=O)c3ccc(Cl)cc3)n(-c3ccccc3)c(=O)c2S1 (stereo unspecified)	2	-3
CCN(CC)C(=O)Oc1ccc2c(ccn2Cc2ccc(/C=C/c3ccccc3)cc2)c1-c1ccc(C#N)cc1	-4	-6
Cc1cccc2nc(CNCc3cn(-c4ccc(F)cc4)nc3-c3ccccc3Cl)cn12	5	4
O=C(c1ccc(CNS(=O)(=O)c2ccc3ccccc3c2)cc1)N1CCOCC1	2	2
Cc1c(C)n2c3c(=O)n(Cc4ccc(Cl)cc4)c(=O)n(C)c3nc2n1CCO	-6	-6
CC(=O)N1N=C(c2ccccc2)OC1C(=O)N(C)CC1OCCO1 (stereo unspecified)	20	17
CCOc1ccc(C(=O)CSc2nc3cc(C(=O)NCCOC)ccc3c(=O)n2CCOC)cc1	-23	-26
CCC(=O)NC1CCCN(C(=O)Nc2ccc(F)cc2OC)C1 (stereo unspecified)	6	6
O=C1CCCN2N=C(SCC(=O)N3CCCC3)SC2=N1	1	-1
CCCCN1CC(c2nc3ccccc3n2CCOc2ccccc2Cl)CC1=O (stereo unspecified)	2	-1
Cc1oc(-c2cc3c(cc2Cl)OCO3)nc1CN(Cc1cnn(C)c1)C(C)C	21	6
Cc1[nH]n(-c2ccc(F)cc2)c(=O)c1CCC(=O)N1CCc2ccccc21	0	1
CCN1CCCC1CN(CC1CCN(CCOC)CC1)C(=O)c1cccc(OC)c1 (stereo unspecified)	13	8
C=CCNC(=O)CN1CN(c2ccccc2)C2(CCN(C(=O)Nc3cccc(CC)c3)CC2)C1=O	-4	0
O=C(CSc1nc2c(c(=O)n1CCc1ccccc1)SCC2)N1CCCCC1	2	-7
CCOC(=O)C1CCCN(CC(=O)N2N=C(c3ccc(F)cc3)CC2c2ccc(OCC)cc2)C1 (stereo unspecified)	4	10
CCCCNC(CC(=O)Nc1ccc(OC(F)F)cc1)C(=O)O (stereo unspecified)	13	11

(list continues)
SMILES	NPYLR7 agonist	NPYLR7 agonist max-min
N#Cc1c(N)n(CCC2=CCCCC2)c2nc3ccccc3nc12	2	15
Cc1ccccc1OCCNCCN1CCOCC1	-6	11
CC(C)Oc1cccc(C(=O)C2CCCN(C(=O)CCc3c[nH]c4ccccc34)C2)c1 (stereo unspecified)	4&2	0&-6
CCCCOc1ccc(-c2cc3c(=O)n(Cc4nc(-c5cccc(C)c5)no4)ccn3n2)cc1	-1	-2
O=C(c1csc(Cc2ccccc2)n1)N1C[C@@H]2[C@H](C1)[C@H]1CC[C@@H]2O1	-1	19
CCOC(=O)CC(=O)N1CCC(c2nc(-c3ccc(OC)cc3)no2)CC1	-7	-7
C=CCN(Cc1csc(COc2cccc(C)c2)n1)C(=O)c1cccc(C)c1	22	20
CC(C)c1cc(CN2CCCC(CNC(=O)c3ccco3)C2)[nH]n1 (stereo unspecified)	18	7
O=S(=O)(CC12C3C4C5C1C2C(Br)(C43)C51OCCO1)c1ccccc1 (stereo unspecified)	0	-4
Cc1ccc(C2=NOC(CN(Cc3ccccc3Cl)C(=O)c3cccs3)C2)cc1 (stereo unspecified)	17	23

Continued, overlapping the part above by 4 compounds.
SMILES	NPYLR7 agonist	NPYLR7 agonist max-min
C=CCN(Cc1csc(COc2cccc(C)c2)n1)C(=O)c1cccc(C)c1	22	20
CC(C)c1cc(CN2CCCC(CNC(=O)c3ccco3)C2)[nH]n1 (stereo unspecified)	18	7
O=S(=O)(CC12C3C4C5C1C2C(Br)(C43)C51OCCO1)c1ccccc1 (stereo unspecified)	0	-4
Cc1ccc(C2=NOC(CN(Cc3ccccc3Cl)C(=O)c3cccs3)C2)cc1 (stereo unspecified)	17	23
Clc1ccc2c(NCC3CCCO3)nc(CN3CCSCC3)nc2c1 (stereo unspecified)	7	3
Cc1ccc(Cl)cc1-n1c(SCC(=O)N2CCOCC2)nnc1-c1ccco1	-4	6
Cc1cc(C)n(CC(=O)N2N=C(C(F)F)CC2(O)C(F)F)n1 (stereo unspecified)	13	7
CCc1ccc(NC(=Nc2nc(C)cc(C)n2)NC(C)=O)cc1	-3	-8
COc1ccccc1C(=O)N1CCN(c2nccn2-c2cccc(Cl)c2)CC1	1	5
CCOC(=O)[C@@H]1CN(C(=O)c2ccccc2OCC)[C@H]2c3ccc(OC)cc3O[C@@H]12	1	5
Cn1cc(Br)cc1C(=O)NNS(=O)(=O)c1ccc(Cl)cc1F	-1	0
COc1cn2c(cc1=O)C(=O)N(CCNC(=O)COc1ccccc1C)CC2	10	1
CC(C)(C)c1ccc(CC(=O)N2CCC2(C)C(=O)Nc2cccc(C#N)c2)cc1 (stereo unspecified)	6	1
COc1ccc(CNC(=O)c2ccc3nc(C)c(N(C)Cc4ccc(NC(C)=O)cc4)n3c2)cc1	11	0

Record cards (already shown). Order of screens: NPYLR7 agonist	NPYLR7 agonist max-min
COc1cn2c(cc1=O)C(=O)N(CCNC(=O)COc1ccccc1C)CC2 reads 10	1
COc1ccccc1C(=O)N1CCN(c2nccn2-c2cccc(Cl)c2)CC1 reads 1	5
Cc1ccc(Cl)cc1-n1c(SCC(=O)N2CCOCC2)nnc1-c1ccco1 reads -4	6
Cn1cc(Br)cc1C(=O)NNS(=O)(=O)c1ccc(Cl)cc1F reads -1	0
CCOC(=O)[C@@H]1CN(C(=O)c2ccccc2OCC)[C@H]2c3ccc(OC)cc3O[C@@H]12 reads 1	5

(cont.)
SMILES	NPYLR7 agonist	NPYLR7 agonist max-min
CSc1cccc(CN2CCC(CCC(=O)NC3CC3)CC2)c1	12	9
CC(C)c1ccccc1NC(=O)C1CC2CCCC(C1)C2=O (stereo unspecified)	12	11
Cc1c(C(=O)N2CCc3c(ncnc3N(C)C)C2)cnc2cc(=O)[nH]n12	29	12
Cc1cccc(C)c1Cn1c(C)c(C(=O)NCc2cccc([N+](=O)[O-])c2)sc1=O	10	5
Cc1ccsc1C=Nn1cnc2scc(-c3cccs3)c2c1=O	-7	-11
O=C(O)c1sc2cc(F)ccc2c1Cl	2	9
OCCN1CCN(CCCN2c3ccccc3C=Cc3ccccc32)CC1	7	-11
CC(CCN(C)Cc1ncc[nH]1)c1ccccc1 (stereo unspecified)	1	-42
COc1ccc(C)c2sc(N(Cc3cccnc3)C(=O)c3ccc(Br)s3)nc12	-5	-5
O=C(c1ccc2nc(C3CCCCC3)oc2c1)N1CCCN(C(=O)c2ccco2)CC1	3	0

Looked up by structure from above:
SMILES	NPYLR7 agonist	NPYLR7 agonist max-min
COC(=O)N[C@H]1C[C@@H](C(=O)NCc2ccccc2F)N(C)C1	-5	-8
COc1ccccc1C(=O)N1CCN(c2nccn2-c2cccc(Cl)c2)CC1	1	5
COc1ccc(C)c2sc(N(Cc3cccnc3)C(=O)c3ccc(Br)s3)nc12	-5	-5

Continued.
SMILES	NPYLR7 agonist	NPYLR7 agonist max-min
COc1ccc(NC(=O)C(=O)NCC2(N(C)C)CCCCC2)c(C)c1	3	3
COCCN(CC(=O)Nc1cc(C(C)(C)C)nn1-c1ccc(OC)cc1)C(=O)Nc1ccc(Cl)cc1Cl	5	7
O=S(=O)(/C=C/c1ccccc1)Nc1ccccc1N1CCCCC1	8	4
COc1ccccc1CCC(=O)NC12CC3CC(CC(C3)C1)C2	1	3
COc1ccc(CCn2c(-c3ccc(O)cc3)n[nH]c2=O)cc1	-2	-1
O=C(NN1CCOCC1)c1ccco1	4	2
Cn1cc(Cc2nc(C3CC3)n[nH]2)c2ccccc21	6	-1
CC1OC(C)(C)N(C(=O)OC(C)(C)C)C1C(=O)NC1CCN(CC(F)F)CC1 (stereo unspecified)	13	10
O=C(NCCn1ccc2ccccc21)C1CCCCC1	1	0
O=C(CSCc1ccccc1)c1ccccc1Br	6	4
O=C(CSc1ccncc1)OCc1cc(-c2ccc3c(c2)OCCO3)on1	-1	-3
O=C(CSc1nccn(-c2ccc(F)c(Cl)c2)c1=O)NC1CCCC1	-4	-4
O=C(Nc1ccccc1)c1cc([N+](=O)[O-])ccc1Cl	2	-25
CCOC(=O)c1cc(-c2cccc(NC(=O)c3cc(C)nn3C)c2)n(-c2ccc(F)cc2)n1	22	10
CC12CS(=O)(=O)CC1SC(=S)N2c1ccccn1 (stereo unspecified)	-6	-6
CCCCSC(C)C(=O)NC1CN(C2CC2)CC1C (stereo unspecified)	3	2
C=CCN(Cc1nccn1Cc1ccccc1)C(=O)c1cccs1	1	10
COc1ccc(C(=O)Oc2ccccc2/C=N/Nc2ccc([N+](=O)[O-])cc2)cc1	-7	-9
CN1CCNC(=O)C12CCN(C(=O)c1cc(-c3cccs3)nn1C)CC2	-4	-9
C=CCN(Cc1sc(C)nc1C)S(=O)(=O)c1cccs1	6	4
COc1ccc(-n2cnnc2SCC(=O)N2CCOCC2)cn1	-5	-5
Cc1cc(C(=O)N2CCn3c(nnc3C(N)=O)C2)ccc1F	7	0
CC(C)N(Cc1ccc(OS(=O)(=O)c2ccc(F)cc2)cc1)C(=O)Nc1ccc(Cl)cc1	0	-9
CCN1CCN(C(=O)CCC2CCN(CC3CCOC3)CC2)CC1 (stereo unspecified)	2	-3
C=CCN1CC(C(=O)Nc2cccc(NC(=O)c3ccc(C)cc3)c2)CC1=O (stereo unspecified)	12	-2
COc1cccc(-n2c(=O)c3ccccc3n(C(C)C(=O)N3CCOCC3)c2=O)c1 (stereo unspecified)	22	19
CC(C)C1CN(C(=O)CCC2=NNC(=O)CC2)CCCN1CC1CC1 (stereo unspecified)	27	19
FC(F)(F)c1ccccc1-n1nc(C2CC2)nc1C1CCOC1 (stereo unspecified)	21	7
O=C1c2ccccc2NC2(CCCC2)N1CC1CCCO1 (stereo unspecified)	7	3
COCC(=O)N1CCC(Oc2ccccc2C(=O)N2CCCO2)CC1	1	-4
CCCN(Cc1c(Cl)ccc2cccnc12)CC1CC1	12	11
COc1ccc2oc(=Nc3cccc(C(C)=O)c3)c(C(N)=O)cc2c1	-10	-19
Cc1ccc2[nH]c(=O)cc(C(=O)N3C[C@@H]4C5CCC(CC5)[C@@H]4C3)c2c1	9	5
Cc1ccccc1Cn1c(C)c(C(=O)NCc2cccc3ccccc23)sc1=O	3	-1
O=C(CN1CCCCCC1)N1Cc2cnn(Cc3ccc(F)cc3)c2C1	-1	-10
O[C@@H]1CN(Cc2cc3ccccc3o2)CC[C@H]1N1CCN(c2ccccn2)CC1	4	-4
C=C(NN=c1sc2ccccc2n1C)c1ccccc1Br	5	4
CCOC(=O)c1ccc(N2C(=O)NC(=O)/C(=C/c3ccc(OC)cc3)C2=O)cc1	-5	-7

Some values from the results shown.
Cc1ccccc1Cn1c(C)c(C(=O)NCc2cccc3ccccc23)sc1=O in NPYLR7 agonist max-min: -1
Cc1ccc2[nH]c(=O)cc(C(=O)N3C[C@@H]4C5CCC(CC5)[C@@H]4C3)c2c1 in NPYLR7 agonist: 9
C=C(NN=c1sc2ccccc2n1C)c1ccccc1Br in NPYLR7 agonist max-min: 4
